Yeast UUG start – modulators of yeast start codon fidelity, primary screen, whole organism, S. cerevisiae, single point, plate reader | S. cerevisiae UUG-firefly luciferase reporter, luminescence/redox ratio | activity score, % at 18.7 µM | hit rate 0.13% among 350,000 | AID 602363, 2012;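 active = replicate mean at a twofold rise or more, about +100% in these data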;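 also: firefly luciferase made from a UUG start codon reports start codon fidelity; reporter light over untreated wells divided by growth signal over untreated wells; some hits fall short of that in this replicate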
eIF4H inh – human eIF4H binding inhibitors, primary screen, translation initiation inhibitor project, biochemical, uHTS, fluorescence polarization. eIF4H fluorescence polarization binding assay. inhibition, % at 35 µM. hit rate 0.94% among 290,000. AID 2012, 2009;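 active = 50% or more with normal probe brightness, or confirmed in later tests; inconclusive = above 50% with abnormal brightness, or retests that disagree; inactive = below 50% or failed in later tests; about a fifth of its hits are not listed in these tables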;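 also: calls also rest on retests at 20 µM and on dose response follow-up; 0% = protein and probe with vehicle and 100% = probe without protein; strong numbers were not always called active; many hits fall short of the cut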
MT1-MMP act inh – blockers of MT1-MMP proenzyme processing, primary screen, HT1080 RFP-PRO-GFP cells, GFP/RFP fluorescence; AID 651647, 2012; hit rate 0.061% among 360,000; GFP/RFP ratio change, % at 20 µM; Matrix metalloproteinase-14 (Homo sapiens), P50281; GFP/RFP ratio fluorescence, overnight; percent of plate control window, DMSO zero;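 active = GFP/RFP ratio change of at least 30% with cell ATP level not reduced by more than half and red fluorescence within 50% of control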; also: strong numbers were not always called active
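Test system: HT1080 RFP-PRO-GFP cells; Benchmarks: DMSO and RFP-L50D-GFP cell wells; Timing: cells overnight before dosing, compound overnight, 37 °C, 5% CO2; Compound: one 20 µM compound dose with 1% DMSO; Read-out: GFP/RFP fluorescence ratio.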
Rce1 inhib – yeast Rce1p protease inhibitors, primary screen, biochemical, fluorescence, cell-free homogeneous. yeast membranes, quenched prenylated peptide cleavage fluorescence. calls only. hit rate 0.27% among 290,000. AID 2563, 2010;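 active = fall in fluorescence gain of 50% or more versus controls, with final raw signal at or below 3038400; inconclusive = same 50% fall but final raw signal above 3038400; inactive = fall in fluorescence gain under 50%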;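 also: plate controls were neutral control wells for no effect and wells lacking membranes for full effect; tested at 10 µM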
Target sequence (Q03530 whole entry, looked up): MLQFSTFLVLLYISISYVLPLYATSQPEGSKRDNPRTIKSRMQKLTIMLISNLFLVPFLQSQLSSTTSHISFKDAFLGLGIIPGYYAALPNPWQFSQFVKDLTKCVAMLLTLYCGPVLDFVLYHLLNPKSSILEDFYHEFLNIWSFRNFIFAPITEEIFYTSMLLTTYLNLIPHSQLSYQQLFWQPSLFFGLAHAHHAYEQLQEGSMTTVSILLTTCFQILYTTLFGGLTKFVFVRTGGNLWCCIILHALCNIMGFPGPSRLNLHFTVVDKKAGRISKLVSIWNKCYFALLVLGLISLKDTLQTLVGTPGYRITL
PABP FP inh – PABP poly(A) RNA binding inhibitors, primary screen, biochemical, fluorescence polarization, uHTS. inhibition, % at 35 µM. hit rate 1% among 290,000. AID 2014, 2009;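 active = 50% or more with normal probe brightness, or confirmed in later tests; inconclusive = above 50% with abnormal brightness, or retests that disagree; inactive = below 50% or failed in later tests; about a fifth of its hits are not listed in these tables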;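 also: calls also rest on retests at 20 µM and on dose response follow-up; controls were probe without protein and protein plus probe with vehicle; some compounds called inactive have numbers as strong as hits; many hits fall short of the cut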
Target sequence (P11940 whole entry, looked up): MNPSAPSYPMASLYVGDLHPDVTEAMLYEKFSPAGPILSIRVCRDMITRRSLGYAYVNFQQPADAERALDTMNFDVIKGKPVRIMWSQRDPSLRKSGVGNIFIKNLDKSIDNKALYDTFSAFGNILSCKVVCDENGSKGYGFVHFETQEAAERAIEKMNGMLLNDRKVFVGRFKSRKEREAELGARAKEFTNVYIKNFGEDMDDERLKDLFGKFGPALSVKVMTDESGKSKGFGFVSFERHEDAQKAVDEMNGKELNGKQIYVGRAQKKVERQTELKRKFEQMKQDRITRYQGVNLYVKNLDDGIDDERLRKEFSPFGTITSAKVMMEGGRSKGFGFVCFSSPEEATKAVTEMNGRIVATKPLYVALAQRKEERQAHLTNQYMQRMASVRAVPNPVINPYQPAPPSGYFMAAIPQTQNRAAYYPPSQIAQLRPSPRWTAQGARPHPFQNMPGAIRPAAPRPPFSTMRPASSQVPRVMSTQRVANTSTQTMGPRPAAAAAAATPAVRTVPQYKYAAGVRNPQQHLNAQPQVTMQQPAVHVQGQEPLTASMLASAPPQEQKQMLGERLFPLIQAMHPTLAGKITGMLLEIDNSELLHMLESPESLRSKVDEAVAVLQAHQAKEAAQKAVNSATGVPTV
HIV Env fusion – inhibitors of HIV-1 Env-driven cell-cell fusion, primary screen, HeLa-JRFL effector, CEM21 target cells, luciferase. hit rate 1.1% among 360,000. inhibition, % at 12.3 µM. AID 651610, 2012;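 active = mean replicate inhibition score of at least 50 and every replicate individually at or above 50; inconclusive = only one of the two criteria met; inactive = mean below 50 and not all replicates reaching 50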;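 also: 0% = plate neutral controls and 100% = maraviroc near 300 nM; one replicate is shown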
CSC inhib – cancer stem cell viability inhibitors, primary screen, luminescence; hit rate 1.1% among 300,000; cancer stem cell-like cells viability; AID 2717, 2010; inhibition, % at 7.5 µM;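 active = mean at 75% or more and at least half the replicates too; inconclusive = mean and replicates disagree; tested in HMLE shEcad cells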;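 also: 0% = median of negative and 100% = median of positive control wells; the first replicate is given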
eIF4H inh retest – second read-out of eIF4H inh, no call of its own (marks repeat the call); inhibition, %; compound at 20 µM; confirmation average;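 mean of two retest wells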
PABP FP inh retest – further read-out of PABP FP inh, marked with its call; inhibition, %; compound at 20 µM; confirmation repeats;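 mean of two retest wells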
MT1-MMP act inh RFP – also measured in MT1-MMP act inh; calls as there; RFP signal change, %; measured here: RFP expression control read;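 0 = vehicle wells; hits needed this value within 50% of zero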
The depositor's hits bear a star; i = inactive; ? = inconclusive; . = not tested or not shown; + = active, no number.

SMILES | Yeast UUG start | eIF4H inh | MT1-MMP act inh | MT1-MMP act inh RFP | Rce1 inhib | PABP FP inh | HIV Env fusion | CSC inhib | others
CC(C)c1ccc(NS(=O)(=O)c2cccc3cccnc23)cc1 | -12 | -2 | 1 | 0 | i | -3 | 7 | -8
O=C(NNC(=O)c1cccnc1)Nc1ccccc1 | . | 5 | -2 | 3 | i | 2 | . | -10
Cc1ccc(C(=O)O)cc1NC(=O)c1ccc(Cn2nc(C)c(Cl)c2C)o1 | . | -3 | -2 | -1 | i | 8 | 3 | -29
COC(=O)c1ccccc1NC(=O)CSc1ncccn1 | . | -3 | -2 | 1 | i | 10 | 2 | -6
O=C(CSc1nc2ncc(Cl)cc2[nH]1)N1CCOCC1 | -23 | . | -2 | 3 | . | . | 19 | 3
CN(C)C(=O)COc1ccc(Br)cc1 | -16 | -10 | 7 | 3 | i | -7 | -2 | -6
CN(C)S(=O)(=O)c1ccc2c(c1)c(=O)c(C(=O)N1CCOCC1)cn2C | -11 | -10 | 1 | 6 | i | -1 | -12 | -7
CC(Oc1ccccc1)C(=O)Nc1ccc(S(=O)(=O)N2CCCC2)cc1 (stereo unspecified) | 3 | -9 | 2 | 1 | i | 1 | -17 | -2
CCOCCCNC(=O)C(NC(=O)CC1NC(=O)NC1=O)c1ccc(Cl)cc1 (stereo unspecified) | -3 | -9 | -6 | -1 | . | -14 | -6 | 18
CCOC(=O)N1CCC(NC(=O)c2cnc3n(c2=O)CCS3)CC1 | -15 | -4 | 1 | 5 | i | 7 | 0 | -7
COc1ccc(-c2nnn(Cc3nc(N)nc(N4CCOCC4)n3)n2)cc1OC | -9 | 3 | 1 | 2 | . | 15 | . | 3
COc1ccccc1/C=C/C=c1\sc2nc(=O)c(Cc3ccccc3)nn2c1=O | . | 65* | 10 | 13 | i | 41* | 5 | 19 | eIF4H inh retest=89*;PABP FP inh retest=61*
CC(=O)OCC(=O)NCc1ccc2c(c1)OCO2 | -14 | 1 | 6 | 7 | i | -14 | . | -6
C/C(=N\NC(=O)c1cccc(S(=O)(=O)N2CCCC2)c1)c1ccc(C)cc1 | . | . | 1 | -2 | i | . | -24 | -7
COCCNC(=O)C(=O)NNS(=O)(=O)c1ccc(Cl)cc1 | -9 | -9 | 2 | 8 | i | -3 | -11 | -3

Arranged by count of non-hydrogen atoms (lowest first): five of the compounds above.
SMILES | Yeast UUG start | eIF4H inh | MT1-MMP act inh | MT1-MMP act inh RFP | Rce1 inhib | PABP FP inh | HIV Env fusion | CSC inhib | others
O=C(CSc1nc2ncc(Cl)cc2[nH]1)N1CCOCC1 | -23 | . | -2 | 3 | . | . | 19 | 3
COCCNC(=O)C(=O)NNS(=O)(=O)c1ccc(Cl)cc1 | -9 | -9 | 2 | 8 | i | -3 | -11 | -3
CC(C)c1ccc(NS(=O)(=O)c2cccc3cccnc23)cc1 | -12 | -2 | 1 | 0 | i | -3 | 7 | -8
CC(Oc1ccccc1)C(=O)Nc1ccc(S(=O)(=O)N2CCCC2)cc1 (stereo unspecified) | 3 | -9 | 2 | 1 | i | 1 | -17 | -2
C/C(=N\NC(=O)c1cccc(S(=O)(=O)N2CCCC2)c1)c1ccc(C)cc1 | . | . | 1 | -2 | i | . | -24 | -7

(next part)
SMILES | Yeast UUG start | eIF4H inh | MT1-MMP act inh | MT1-MMP act inh RFP | Rce1 inhib | PABP FP inh | HIV Env fusion | CSC inhib | others
C/C(=N\NC(=O)c1ccccc1)c1ccc(NC(=O)c2cccs2)cc1 | -20 | -4 | 2 | 5 | i | 1 | . | -8
O=C(Nc1ccccc1N1CCN(C(=O)c2ccc(Cl)cc2)CC1)c1cccnc1 | -10 | 12 | 0 | -4 | i | -6 | -36 | -6
CN(C(=O)c1ccc(NC(=O)Cc2ccc(NC(=O)C3CCCN(C(=O)c4ccccc4)C3)cc2)cc1)C1CC1 (stereo unspecified) | -13 | . | 2 | -4 | . | . | 11 | -4
CC(C)C(=O)N(c1ccc2oc(=O)sc2c1)S(=O)(=O)c1cccs1 | -7 | -1 | 4 | 3 | i | 6 | . | 8
N#Cc1cnn(Cc2ccc(Cl)cc2)c1N | -15 | -3 | 4 | 6 | i | -6 | -8 | -11
CCOC(=O)N1CCN(c2nnnn2-c2ccccc2)CC1 | -4 | 6 | 3 | 5 | i | 5 | . | -12
O=C(Nc1nc2ccc3ccccc3c2s1)c1ccc(N2CCCCC2)c([N+](=O)[O-])c1 | 1 | -9 | -12 | -3 | i | -5 | 10 | -14
Fc1cccc(Cl)c1CSc1nnc(COc2cccc3cccnc23)o1 | . | -6 | 2 | -1 | i | 5 | . | 15
COc1ccc(S(=O)(=O)Cc2ccc(C(=O)N3CC(C)CC(C)C3)o2)cc1 (stereo unspecified) | 31 | 2 | -1 | -2 | i | -5 | -2 | .
CNC(=S)NC(CC(=O)OC)c1ccc2c(c1)OCO2 (stereo unspecified) | . | -10 | 4 | 3 | i | 36 | -5 | -8
Oc1c(C=NCc2ccncc2)sc2ccccc12 | . | -4 | . | . | i | 4 | -79 | 8
CCN=C(NC#N)SCc1c(F)cccc1Cl | -12 | -6 | 1 | 4 | i | -8 | 17 | 6
Cc1cc(=O)c2cc3nc(-c4cccnc4)oc3c(Br)c2o1 | . | 97* | . | . | i | 78* | . | -1
COc1cc(OC)cc(-c2sc3ccc(OC)cc3c2C#CCCO)c1 | 21 | . | -2 | 1 | . | . | -15 | ?
CCC(C)NC(=O)[C@@H]1CCCN1C(=O)C1CCN(S(=O)(=O)c2ccc(C)cc2)CC1 (stereo partly specified) | 5 | 5 | 0 | 3 | i | 8 | -1 | 9
COc1ccc(C(=O)NCCc2ccccc2F)cc1OC1CCN(C(C)=O)CC1 | 2 | -2 | -2 | -2 | i | 2 | -12 | -13
COc1cc(/C=N/NC(=O)c2cccc([N+](=O)[O-])c2)cc(OC)c1O | . | -5 | 2 | 4 | i | -3 | -13 | -5
COc1cccc(C2C(=O)N(C3CCCCC3)CC(=O)N2Cc2ccc(F)cc2)c1 (stereo unspecified) | -8 | 3 | -8 | -9 | i | -2 | . | .
CCn1c(=N)n(CC(=O)c2ccc(OC)cc2)c2ccccc21 | -7 | 3 | -6 | 5 | i | 0 | . | 5
CC(=O)OCCCNc1cc(SCc2ccco2)c2nonc2c1[N+](=O)[O-] | . | 94 | 5 | 2 | i | -1 | -14 | 3 | eIF4H inh retest=28;PABP FP inh retest=32
Cc1ccc(NC(=O)CN(C)C(=O)C(C)OC(=O)CNC(=O)c2ccc(Cl)c([N+](=O)[O-])c2)cc1 (stereo unspecified) | 14 | . | -1 | -1 | i | . | -30 | -13
COc1ccc(C(=O)COC(=O)C(C)N2C(=O)C3C4CCC(C4)C3C2=O)cc1 (stereo unspecified) | -35 | 11 | -1 | 1 | i | -2 | -4 | 11
CC1(C(=O)N(CC(=O)NC2CCCC2)Cc2ccco2)CC(=O)N=C2C=CC=CN21 (stereo unspecified) | 2 | -2 | 2 | 1 | + | -4 | -50 | 0
CCCS(=O)(=O)NC(=O)C1(C)CCCN(C(=O)CSc2ccccc2)C1 (stereo unspecified) | -41 | . | -1 | 5 | . | . | -76 | .
COc1cc2c(cc1OC)CN(Cc1cc(=O)oc3cc(C)c(Cl)cc13)CC2 | . | -14 | -6 | -4 | i | -8 | 10 | 23
COc1ccc(NC(=O)NC(C)c2ccc3c(c2)OCO3)cc1OC (stereo unspecified) | -16 | -7 | 2 | 1 | i | -7 | . | -5
O=C(O)CN(c1cccc(C(F)(F)F)c1)S(=O)(=O)c1ccccc1 | . | 1 | -4 | -1 | i | -3 | 5 | 0
O=c1c2cnn(-c3ccc(F)cc3)c2ncn1Cc1ccccn1 | . | 3 | . | . | i | -5 | 3 | .
CCOc1ccccc1C(=O)NCCCn1ccnc1 | -16 | -8 | -2 | -1 | i | -15 | -39 | -16
COc1ccccc1CNC(=O)C1CCN(S(=O)(=O)c2ccc(N3CCCC3=O)cc2)CC1 | -19 | -3 | 1 | 0 | i | 6 | -15 | -16

Already shown: entries from further up.
SMILES | Yeast UUG start | eIF4H inh | MT1-MMP act inh | MT1-MMP act inh RFP | Rce1 inhib | PABP FP inh | HIV Env fusion | CSC inhib | others
COc1ccc(C(=O)NCCc2ccccc2F)cc1OC1CCN(C(C)=O)CC1 | 2 | -2 | -2 | -2 | i | 2 | -12 | -13
COc1cc(/C=N/NC(=O)c2cccc([N+](=O)[O-])c2)cc(OC)c1O | . | -5 | 2 | 4 | i | -3 | -13 | -5
COc1cccc(C2C(=O)N(C3CCCCC3)CC(=O)N2Cc2ccc(F)cc2)c1 (stereo unspecified) | -8 | 3 | -8 | -9 | i | -2 | . | .

More structures.
SMILES | Yeast UUG start | eIF4H inh | MT1-MMP act inh | MT1-MMP act inh RFP | Rce1 inhib | PABP FP inh | HIV Env fusion | CSC inhib | others
Cc1ccc(C(=O)NC(Cc2c[nH]c3ccccc23)C(=O)O)o1 (stereo unspecified) | -24 | -3 | -4 | 2 | i | 3 | . | 3
CCOC(=O)c1ccc(N2C(=O)CC(Sc3nnc(C)s3)C2=O)cc1 (stereo unspecified) | -20 | 5 | 2 | 12 | i | -4 | . | .
Nc1cc2c(cc1C(=O)c1ccc(Cl)cc1)OCCO2 | -13 | -4 | 10 | 3 | i | -8 | -23 | 5
Cc1cccn2cc(CCNC(=O)Cc3cccs3)nc12 | -10 | 2 | 2 | 5 | i | 9 | -15 | -11
Brc1cnc2nc(SC/C=C/c3ccccc3)[nH]c2c1 | -22 | 2 | 0 | -1 | i | 10 | 11 | -1
COc1ccccc1-c1noc(-c2cccnc2)n1 | -9 | 10 | 1 | -1 | i | 0 | -144 | -11
Cc1cccn2c(=O)nc(SCC(=O)Nc3ccc4c(c3)OCCO4)nc12 | -14 | . | -3 | -1 | i | . | 0 | -13
CC(C(=O)Nc1ccc(S(=O)(=O)N2CCCC2)cc1)N(C)CC(=O)Nc1cccc(F)c1 (stereo unspecified) | 5 | . | -2 | -3 | . | . | . | -15
CCCN(CC(=O)Nc1ccccc1C)C(=O)c1ccc(C2SCCS2)cc1 | -6 | . | 1 | 1 | . | . | 24 | 1
CCN(CC)CCCNC(=O)c1ccc(C)c(NC(=O)C2=C(C)OCCS2)c1 | 4 | 2 | -1 | 4 | i | 4 | 23 | 0
C#CCOCCOCCOCCNc1nc(N2CCN(C(=O)[C@H](CCCCN)n3cc([C@@H](N)CO)nn3)CC2)nc(N2CCN(C(=O)[C@H](Cc3cc4ccccc4[nH]3)n3cc([C@@H](N)Cc4ccc(O)cc4)nn3)CC2)n1 | . | 27 | . | . | i | 26 | . | 6
Cc1ccc(CNc2cnn(C34CC5CC(CC(C5)C3)C4)c(=O)c2Cl)cc1 | . | -4 | -4 | -3 | i | -4 | 4 | 78*
CC(C)n1c(=O)c2ccccc2n1Cc1cn(Cc2cccnc2)nn1 | 37 | . | 6 | 2 | . | . | 22 | .
